# ClpP mod – qHTS Assay for Activators of ClpP | ATP-dependent Clp protease proteolytic subunit (Bacillus subtilis (strain 168)), P80244 | purified B. subtilis ClpP, FRET peptide cleavage, 20 min | Potency, µM (series often up to 57.5 µM), for the others: at the highest dose activity change, negative = active | 340,000 tested, 1.9% active | AID 651965, 2013; active = well fitted falling curve with a large enough effect; inconclusive = small, poorly fitted or top-dose-only effect; inactive = no such curve, though single readings can be large or run the other way; also: potency is read from the fitted curve at half-maximal effect; the source files actives as falling curves though it sought activators and does not explain the sign; nearly all actives have a fitted effect of over 65% in size; many hits overshoot -100%
# Target sequence (P80244 whole entry, looked up): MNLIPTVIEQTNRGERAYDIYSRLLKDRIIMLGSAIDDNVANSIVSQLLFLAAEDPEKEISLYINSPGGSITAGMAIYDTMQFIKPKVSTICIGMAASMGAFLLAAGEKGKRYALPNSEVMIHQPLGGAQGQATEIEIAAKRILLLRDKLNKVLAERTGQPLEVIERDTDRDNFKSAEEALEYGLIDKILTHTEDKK
#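 ClpP 10 microg/mL final, pH 8 Tris/KCl buffer with BSA, glycerol, Tween-20; compound pinned in; FRET-FV substrate; RT 20 min; Ex320/Em430; ΔFRET vs ADEP 5.8 microM, DMSO, no enzyme.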
# D2 agonist – human D2 receptor agonism in beta-arrestin assay; P14416; DiscoveRx PathHunter D2 beta-arrestin, luminescence, 90 min; 100% = 57 uM dopamine signal; activation, % (concentration not given with the values); 360,000 tested, 0.084% active; AID 624465; in the data active = activation above about 40%; inconclusive = about 15% to 40%; inactive = below about 15%; also: compound concentration not given in the record; the text of the record calls up to 30% inactive
# Target sequence (P14416 whole entry, looked up): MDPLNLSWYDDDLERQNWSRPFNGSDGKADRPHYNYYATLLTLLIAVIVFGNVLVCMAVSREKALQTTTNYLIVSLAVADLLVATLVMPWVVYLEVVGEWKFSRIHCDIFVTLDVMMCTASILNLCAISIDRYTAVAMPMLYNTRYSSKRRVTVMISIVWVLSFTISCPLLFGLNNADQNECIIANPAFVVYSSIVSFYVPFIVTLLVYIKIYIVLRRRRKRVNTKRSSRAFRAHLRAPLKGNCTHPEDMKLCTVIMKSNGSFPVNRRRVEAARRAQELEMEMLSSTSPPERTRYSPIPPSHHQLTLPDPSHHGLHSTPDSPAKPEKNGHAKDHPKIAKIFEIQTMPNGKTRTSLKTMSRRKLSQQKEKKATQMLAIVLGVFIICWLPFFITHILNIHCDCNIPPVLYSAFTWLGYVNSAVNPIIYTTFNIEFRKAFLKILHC
#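 DiscoveRx PathHunter D2 beta-arrestin cells (2,100/well) attached overnight, then compound-stimulated 90 min at 37 C in HBSS/10 mM HEPES/0.1% Tween-20 buffer; beta-galactosidase complementation read by luminescence after 1 h at ambient temperature. Dopamine 57 uM final (EC100) as control.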
# Menin-MLL FL inh – inhibitors of human menin-MLL interaction, wild-type MLL peptide; Fluorescence polarization, fluorescein-MLL peptide displacement from menin; FP activity change, % at 61.4 µM; 290,000 tested, under 10 active; AID 1766; inconclusive = falling polarisation curve, or a change in total fluorescence; inactive = total fluorescence flat and polarisation flat or rising; no compound was filed as active; the % refers to the polarisation; negative = inhibition;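 also: % of control where 0% means no effect; inhibitors lower the polarisation; unlabelled MLL peptide was the positive control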
# Sfp PPTase inh – Sfp phosphopantetheinyl transferase inhibition; Biochemical Sfp PPTase activity, qHTS; Potency, µM, for the others: max response, negative = inhibition, most hits filed as inhibitors; AID 1490; 310,000 tested, 3.5% active; active = well fitted inhibition curve with a large enough effect; inconclusive = small, poorly fitted or top-dose-only effect, or another doubt; inactive = no such curve, though single readings can be large or run the other way;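 also: the enzyme is Sfp with the accession as filed and its product quenches rhodamine fluorescence; potency is read from the fitted curve at half-maximal effect; 0% = enzyme reaction without inhibitor and -100% = no enzyme wells; top concentration of the series not given in the record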
#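 Step 1, compound plus 15 nM Sfp-PPTase, 15 min, room temperature. Step 2, add rhodamine-CoA (5 uM) and BHQ-2-YbbR (12.5 uM). Step 3, read 525/598 nm fluorescence at 0 and 30 min.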
# gsp agonist – activates gsp, the McCune-Albright syndrome mutation; 340,000 tested, 0.13% active; gsp mutant cells, cAMP HTRF, 30 min; control for the full effect not named in the record; Potency, µM (highest dose often 76.9 µM), without a hit: at the highest dose activation (cAMP increase), hits mostly activators; AID 624287; active = well fitted activation curve with a large enough effect; inconclusive = small, poorly fitted or top-dose-only effect, or another doubt; inactive = no such curve, though single readings can be large or run the other way; cell line not stated here;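 also: phosphodiesterase inhibitor Ro 20-1724 added with compounds to block cAMP breakdown; potency is read from the fitted curve at half-maximal effect; nearly all actives have a fitted effect of over 60% in size; about a fifth of the inactives were tested at one dose only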
#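 Cells in DMEM/10% FBS with G418 were pretreated with compounds in DMSO plus […] (300 uM stock) for 30 min at 37C. cAMP was measured by HTRF (cAMP-d2 plus anti-cAMP antibody-K) after 30 min at room temperature.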
# gsp antag – antagonists of gsp mutant (McCune-Albright syndrome) | Potency, µM (top dose mostly 76.9 µM), inactives show at the highest dose activity change, negative = inhibition, usual class: inhibitors | gsp-mutant cells, cAMP HTRF, 30 min; control for the full effect not named in the record | AID 624288 | 340,000 tested, 0.4% active; active = falling curve of any shape with a large fitted effect; inconclusive = falling curve, mostly with a smaller effect; inactive = flat or rising curve; cell line not stated here;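 also: intracellular cAMP measured with PDE inhibitor Ro 20-1724 present during compound exposure; potency is read from the fitted curve at half-maximal effect; % is scaled to controls: 0 for no effect and ±100 for the full control effect; nearly all actives have a fitted effect of over 65% in size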
#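 Cells, 2000/well, grown 16–24 h in DMEM 10% FBS with 0.5 mg/ml G418, then compounds plus […] (300 uM addition stock), 30 min at 37C. cAMP read by HTRF (cAMP-d2 and anti-cAMP antibody-K in lysis buffer) after 30 min RT.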
# PINK1 expr mod – modulators of PINK1 expression; PINK1 immunofluorescence, high-content cytometry, 24 h; Potency, µM (top dose mostly 76.6 µM), for inactives: at the top dose activation (PINK1 increase), usual class: activators; 410,000 tested, 0.2% active; active = well fitted activation curve with a large enough effect; inconclusive = small, poorly fitted or top-dose-only effect; inactive = flat fitted curve, though single readings scatter; cell line not stated here;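 also: potency is read from the fitted curve at half-maximal effect; % of control where 0% means no effect; nearly all actives have a fitted effect of over 65% in size; a mitochondrial uncoupler was the plate control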
#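 Compound titrations (5 concentrations, 24 h) on a stable cell line; DMSO and CCCP controls. Endpoint: fixed-cell PINK1 immunofluorescence with mitochondrial, cell and nuclear markers, scanned by microplate cytometer.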
# * hit, by the source's call; ? = inconclusive; nt = no result given; [ ] = another dose, or the depositor's remark. Compounds were not picked by outcome; 5.1% or so of the library scored in one or more.
SMILES,ClpP mod,D2 agonist,Menin-MLL FL inh,Sfp PPTase inh,gsp agonist,gsp antag,PINK1 expr mod
CSc1nc2nc(C(F)(F)F)cc(-c3ccccc3)n2n1,32µM*,-2.9,0.5,0%,1%,-16%,0.8%
CCC(=O)c1ccc(OC(C)C(=O)NC2(C#N)CCCCC2)cc1 (stereo unspecified),-1.0%,-1.7,0.9,9%,-22%,9%,0.4%
COc1ccc(/C=N/N2CCN(Cc3ccc(C)cc3)CC2)cc1Br,-0.3%,-4.0,0.0,13%,3%,-5%,19%
O=C(Nc1cccc(S(=O)(=O)Nc2ccc(Cl)cc2)c1)c1cc2c(s1)CCCC2,-25%,2.5,1.0,34%,0%,-15%,?
CC1(C)CC(=O)C(N=Nc2cccc([N+](=O)[O-])c2)=C(O)C1,nt,-6.7,4.4,-4%,1%[15.4 µM],?,0.3%
COc1cccc(C2CC(c3ccccc3)=NN2S(=O)(=O)c2ccc(C)cc2)c1OC (stereo unspecified),nt,-2.6,?,4%,-9%[15.4 µM],3%,0.3%
O=C(NCCCN1CCC(Cc2ccccc2)CC1)c1ccc(CS(=O)c2ccccc2Cl)o1 (stereo unspecified),0.5%,-3.9,nt,nt,?,nt,-0.5%
COC(=O)c1nn(-c2ccc(OC)cc2)c(=O)cc1O,nt,-0.5,-0.3,-16%,1%,-2%,0.5%
O=c1cc(O)nc(SCc2ccccc2)n1-c1ccc(F)cc1,2.4%,0.6,1.7,18%,-26%,?,-1.3%
CCc1nc2c(OCc3ccccc3C(=O)OC)cccn2c1N(C)C(=O)CC(C)C,0.5%,-3.5,nt,nt,nt,nt,1.6%
O=C(NC1CC1)c1cccc(-c2cncc3nccn23)c1,4.5%,-2.2,nt,nt,nt,nt,1.1%
CCCNCC1C(Oc2ccc(Cl)cc2)C(=O)N1c1ccccc1C (stereo unspecified),-0.7%,-4.8,0.7,6%,5%[15.4 µM],14%,12%
Cc1ccc(CCNC(=O)C2CC(=O)N(C3CCCCC3)C2)cc1 (stereo unspecified),-1.3%,-2.5,nt,-4%,-37%[inhibitor],5%,2.2%
CCN(CC)S(=O)(=O)c1ccc(C(=O)NNC(=O)C2COc3ccccc3O2)cc1 (stereo unspecified),-1.7%,1.4,nt,nt,?,4%,2.1%
O=C(NCCOc1ccccc1F)Nc1ccc(Br)cc1,2.7%,-3.4,-1.6,13%,-14%,-4%,6.9%
Cc1cc(C(=O)Nc2sc(C)c(C)c2C#N)c(C)o1,-27%,1.7,6.4,16%,13%,3%,13%[38.3 µM]
COc1ccc(CN2CCN(CC3CC3)CC2CCO)c(C)c1C (stereo unspecified),-0.7%,1.2,0.0,2%,-9%,6%,-0.3%
COc1ccc(NC(=O)c2ccc(NC(=O)c3cccnc3)cc2)cc1,0.2%,1.5,nt,nt,-27%,nt,0.1%
CCc1ccccc1NC(=O)CCCSc1nc2ccccc2s1,0.1%,0.5,3.7,-6%,-12%,-7%,2.6%
O=C(OCCN1C(=O)CCC1=O)c1ccc(S(=O)(=O)N2CCCCC2)cc1,-4.9%,-3.9,4.1,5%,2%,6%[15.4 µM],-0.5%
O=C(COc1ccc(S(=O)(=O)N2CCOCC2)cc1)N1CCOCC1,-1.4%,3.0,nt,nt,11%,6%,-0.7%
COc1ccc(S(=O)(=O)N2CCOCC2)cc1NC(=O)CSc1cccc[n+]1[O-],0.4%,-1.0,6.4,-7%,16µM*,24%,0.8%
CN1CCN(S(=O)(=O)c2cccc(C(=O)N3CCc4ccccc43)c2)CC1,nt,-4.2,2.3,13%,23%,1%,-0.7%
O=C1C=C(Nc2ccc(Cl)cc2)C(=O)N1c1ccc(Cl)cc1,1.3%,-2.6,-13,1%,-35%[inhibitor],12%,35µM*
Cc1cc(C)c2c(c1)NC(c1cc3c(cc1Br)OCO3)C1CC=CC21 (stereo unspecified),1.9%,2.8,8.0,-14%,-9%,-2%,?
CCCn1c(SCC(=O)Nc2cc(C(=O)O)ccc2C)nc2sc3c(c2c1=O)CCC3,-5.1%,-0.8,nt,nt,16%,?,0.9%
CSCCC(NC(=O)c1ccccc1Br)C(=O)N1CCN(C/C=C/c2ccccc2)CC1 (stereo unspecified),0.9%,0.9,nt,nt,-31%[inhibitor],-20%,-0.5%
COc1ccc(N2C(=O)CC(Sc3ccccc3C(=O)O)C2=O)c([N+](=O)[O-])c1 (stereo unspecified),-0.8%,-3.0,-2.7,14µM*,-31%[inhibitor],6%,-0.2%
Cn1ncc(Oc2ccc([N+](=O)[O-])cc2)c(Cl)c1=O,nt,3.4,2.6,17%,-1%[15.4 µM],7%,0.5%
COc1cccc(NC(=O)CN(C)C(=O)c2ccccc2OCc2c(C)noc2C)c1,nt,-1.7,nt,nt,-16%[15.4 µM],5%,-2.4%
COc1ccc(CCNS(=O)(=O)c2ccc3c(c2)CC(C)N3C(=O)C2CC2)cc1OC (stereo unspecified),-1.5%,3.3,nt,nt,-25%,nt,1.5%
COc1ccc2ccc3ccc(OC)c(OC(C)=O)c3c2c1,?,5.3,nt,nt,-5%,-3%,-1.5%
Cn1c(=O)c2sccc2n2c(CCCC(=O)NC3CCN(Cc4ccccc4)CC3)nnc12,2.7%,2.0,-7.0,15%,-34%,5%,1.9%
CN(C)c1cccc(NC(=O)C2(C)Cc3c(-c4cccnc4)ccnc3O2)c1 (stereo unspecified),-3.8%,-2.8,nt,nt,nt,nt,-0.1%
CCCOc1ccc(Cn2cnc3ccccc32)cc1,-0.8%,3.2,-7.7,?,22%,-25%,-0.9%
COCc1nc(-c2cc(OC)c(OC)c(OC)c2)no1,0.3%,-2.3,3.1,17%,22%,0%,0.7%
c1ccc(CCc2ccccn2)cc1,-10%,-1.6,nt,nt,0%[15.4 µM],-1%,2.1%
Cc1snc(SCC(=O)N/N=C(\N)COc2ccc(F)cc2)c1C#N,-0.6%,-1.9,1.8,-26%,-9%,2%,0.0%[38.3 µM]
Cc1c(CCO)c(=O)oc2n[nH]c(-c3ccccc3)c12,nt,0.5,-1.8,15%,-33%[inhibitor],-8%,-1.7%
CCOc1ccc(N2C(=O)CC(N3CC(C)OC(C)C3)C2=O)cc1 (stereo unspecified),-1.8%,-2.7,4.9,12%,-31%[inhibitor],0%,0.6%
COc1cc(N2CN=c3s/c(=C\c4ccccn4)c(=O)n3C2)cc(OC)c1OC,-0.6%,-1.6,2.0,-15%,21%,-3%,0.3%
O=C(OCCOc1ccccc1)c1cccc(S(=O)(=O)N2CCOCC2)c1,1.3%,-1.8,nt,nt,3%,1%,-0.2%
CCC(=NNS(=O)(=O)c1ccc(C)cc1)c1ccc(OC)c(C)c1,-1.0%,-6.3,nt,nt,-20%,nt,5.7%
O=C(O)[C@H](Cc1ccccc1)N1C(=O)c2c(Cl)c(Cl)c(Cl)c(Cl)c2C1=O,-1.3%,-2.0,0.3,6%,4%,-3%,-1.1%
CCOC(=O)c1ccc(-n2ccnc2)c(NC(=O)c2ccc(C(C)(C)C)cc2)c1,1.3%,-3.1,2.1,-7%,-3%,-3%,12%
CCOC(=O)c1c(C)oc(NC(=O)COc2ccc(Cl)cc2C)c1C#N,-4.9%,1.5,-1.0,17%,5%,?,-2.0%
O=C1c2cccc3c(N4CCCCC4)ccc(c23)C(=O)N1c1cccc(O)c1,nt,0.0,?,-5%,11%[15.4 µM],-39%,4.7%
C=CCn1c(Br)nc2c1c(=O)n(C)c(=O)n2C,-0.5%,-0.1,1.2,-7%,?,2%,1.1%[38.3 µM]
O=C(N/N=C\c1cc2c(cc1Cl)OCO2)c1cccs1,5.8%,1.0,nt,6%,?,7%,6.4%
Cc1c(N(C)S(=O)(=O)c2cccc(C(=O)NCc3cccnc3)c2)c(=O)n(-c2ccccc2)n1C,-5.6%,-0.3,nt,nt,-102%[inhibitor],nt,0.8%
CCN(CC)CC(O)c1ccc2ccc3ccc(O)cc3c2c1 (stereo unspecified),1.5%,-0.5,nt,nt,-4%[15.4 µM],4%,-1.3%
Cc1ccc(S(=O)(=O)Nc2ccc(-c3ccc4nncn4n3)cc2)cc1,nt,4.5,nt,nt,15%[15.4 µM],-2%,5.2%
CCOc1ccc(NC(=O)Cc2c(O)c3ccccc3[nH]c2=O)cc1,-16%,-3.4,3.5,11%,1%,-1%,0.4%
CSc1ccc(/C=C/C(=O)OCC(=O)N(C)CCC#N)cc1,3.7%,-1.8,-1.1,12%,3%,-1%,-1.8%
CN1CCN(NC(=O)NC2CCCCC2)CC1,-0.4%,-4.9,4.2,13%,-57%[inhibitor],15%,1.9%
CCOc1ccccc1N1CCN(S(=O)(=O)c2cccs2)CC1,-0.2%,-2.6,2.6,2%,-22%,2%,0.1%[38.3 µM]
C=CCNC(=O)Cn1c(=O)c2c(ncn2CCC(C)C)n(Cc2ccccc2)c1=O,2.9%,-4.7,4.4,20%,-4%[15.4 µM],-2%,-1.1%
CC(C)c1c(C#N)c(N)nc(SCC(=O)c2cc3ccccc3oc2=O)c1C#N,-2.9%,-4.1,2.2,-10%,14%,?,?
CCOC(=O)CN(C(=O)CN1CCOCC1)c1ccc(Br)cc1,-3.0%,0.7,17,1%,-24%,-4%,-1.4%
COc1ccccc1NC(=O)c1ccc(NC(=O)CSc2nnnn2C)cc1,0.1%,-2.2,0.1,9%,-32%[inhibitor],-14%,0.0%
# New compounds follow:
SMILES,ClpP mod,D2 agonist,Menin-MLL FL inh,Sfp PPTase inh,gsp agonist,gsp antag,PINK1 expr mod
COCCn1c(C)cc(C(=O)CSc2cc(C)c3ccccc3n2)c1C,-3.8%,-1.5,0.0,-23%,5%,-17%,0.8%
COc1ccc(CCNC(=O)C2CC(=O)N(c3ccccc3)C2)cc1OC (stereo unspecified),-1.4%,-1.9,-1.8,-1%,-17%,18%,2.5%
O=C(Nc1nnc(C2CC2)s1)c1cccc(S(=O)(=O)N2CC(c3ccccc3)CC2=O)c1 (stereo unspecified),2.5%,0.8,2.0,18%,-43%,-18%,-0.3%
COC(=O)c1cn[nH]c1NC(=S)Nc1ccc(C)cc1Cl,-0.5%,4.7,2.0,-13%,27%,0%,12%[38.3 µM]
